Vaccinia mCherry: inhibitors of vaccinia virus infection (mCherry reporter signal). Vaccinia virus mCherry reporter infection, fluorescence; about a quarter of the inactives have no number. Potency, µM (titrated, usually from 36.5 µM), for inactives: at the highest dose activity change, negative = inhibition, actives largely listed as inhibitors. 310,000 compounds, 0.63% hits. AID 720579; active = well fitted inhibition curve with a large enough effect; inconclusive = small, poorly fitted or top-dose-only effect; inactive = no such curve, though single readings can be large or run the other way; tested in A549 cells; note: nearly all actives have a fitted effect of over 35% in size; inactives centre near -10
VACV Venus inh: vaccinia inhibition (Venus reporter) | AID 720580 | Vaccinia virus Venus reporter expression, fluorescence | Potency, µM (highest dose often 36.5 µM), for inactives: at the top dose activity change, negative = inhibition, actives largely listed as inhibitors | 330,000 compounds, 0.46% hits; active means well fitted inhibition curve with a large enough effect; inconclusive means small, poorly fitted or top-dose-only effect; inactive means no such curve, though single readings can be large or run the other way; tested in A549 cells; note: nearly all actives have a fitted effect of over 30% in size; inactives centre near -10
Active calls of the source: *; i = inactive; u = inconclusive; x = not tested or not shown; & = joins results of further samples; [ ] = remark or other dose. % is set by controls: 0 for no effect and ±100 for the full control effect; potency is the fitted concentration of half-maximal effect.

SMILES | Vaccinia mCherry | VACV Venus inh
Cc1cccc(NC(=S)NC(=O)c2ccc(Br)o2)c1C | -11.7% | 3.1%
CCCCN(CCCC)S(=O)(=O)c1ccc(NC(=O)c2c(-c3ccccc3)noc2C)cc1 | -21.3% | -18.5%
Nc1c(Cl)ncnc1N/N=C/c1ccc2ccccc2n1 | 2.82µM* | u
CCCCn1c(=O)c(CCC(=O)O)nc2ccccc21 | -4.3% | -5.9%
C[C@@H]1CC[C@]2(C(=O)O)CC[C@]3(C)C(=CCC4[C@@]5(C)CC[C@H](O)[C@@](C)(C(=O)O)C5CC[C@]43C)C2[C@]1(C)O (some centres not stated) | -12.7% | -1.2%
CCCn1nc(C(=O)NNC(=O)CCOc2ccccc2OCC)c2ccccc2c1=O | 2.4% | -2.7%
COc1ccc(C(=O)Nc2ccc3nc4c(c(Nc5ccccc5OC)c3c2)CCCC4)c(OC)c1 | i | -17.0%
COc1ccc2[nH]c(C(O)C(O)c3nc4c(OC)c(OC)ccc4[nH]3)nc2c1OC (configuration not stated) | -4.5% | -20.2%
O=C(Nc1ccc2nc(SCC(=O)N3CCCC3)sc2c1)c1cccc(F)c1 | -8.1% | -5.7%
O=C(c1ccccc1)N(C(=O)c1ccccc1)c1ccccc1 | -12.4% | -24.9%
CCOc1cc(CNc2ccc(O)cc2)cc(Br)c1OCc1ccccc1F | x | -15.2%
CN(C)CC[C@@H](c1ccc(Cl)cc1)c1ccccn1 | -20.3% | -12.9%&-3.9%
COc1ccc(CN(C(=O)c2ccc(-c3ccccc3)[nH]2)C(C(=O)NC(C)(C)C)c2ccncc2)cc1 (configuration not stated) | -14.8% | -27.9%
Cc1ccc(-c2cc(C(=O)N/N=C/C(Br)=C/c3ccccc3)n[nH]2)o1 | u | -26.2%
COC(=O)c1cccc(NC(=O)CSc2nncn2-c2ccccn2)c1 | 4.0% | 3.0%
COc1ccc(CC(=O)N2C[C@H]3C[C@@H](C2)c2cccc(=O)n2C3)cc1 | 7.4% | -6.1%
CCOCCOC(=O)c1ccc(-n2cncn2)nc1 | i | -5.6%
C/C(=N\Nc1ccccn1)c1ccc(C(C)C)cc1 | -4.6% | 7.8%
CCCC(C)NC(=O)Cc1ccccc1[N+](=O)[O-] (configuration not stated) | -6.6% | -2.5%
Cc1cccc(N2CCn3c2nc2c3c(=O)n(CCc3ccccc3)c(=O)n2C)c1 | -4.7% | -1.0%
COC(=O)c1cccnc1-n1c(=O)c2cccnc2n(CC(=O)Nc2cccc(C(F)(F)F)c2)c1=O | 1.0% | 7.7%
N/C(=N\OC(=O)Cc1ccccc1)c1ccc(Br)cc1 | -6.2% | -5.5%
COc1ccc(OC)c(NC(=O)C2CCCN(S(=O)(=O)c3c(C)nn(C)c3C)C2)c1 (configuration not stated) | 7.0%&-22.8% | -8.4%&-22.4%
Cc1ccc2c(c1)CCCN2C(=O)c1cnn2c1NC(=C1CC1)C=C2C(F)F | -29.7% | u
COc1ccc(NC2=NC(=S)N(c3cccc(C)c3)C23CCCCC3)cc1 | -13.3% | -10.6%

Next records.
SMILES | Vaccinia mCherry | VACV Venus inh
CC(C)C(=O)Nc1nnc(NC(=S)Nc2ccccc2)s1 | -17.1% | -4.6%
O=C(Nc1cc(S(=O)(=O)N2CCOCC2)ccc1Cl)c1cc(=O)c2ccccc2o1 | 6.4% | -10.3%
CCN(CC(=O)NCCCn1ccnc1)S(=O)(=O)c1ccc(C)cc1 | -6.3% | -13.2%
CCOC(=O)C1(C)CCCN1C(=O)c1ccccc1F (configuration not stated) | 3.9% | 2.1%
CC(C)NC(=O)c1ccccc1NC(=O)C1CC(=O)N(C(C)C)C1 (configuration not stated) | -2.1% | -9.3%
Cc1nc2sccn2c(=O)c1S(=O)(=O)N1CCN(c2ccccc2)CC1 | -14.3% | 0.5%
CC(=O)c1ccc(NC(=S)NC(=O)c2c(Cl)c(C)nn2C)cc1 | -17.8% | -11.3%
COCC(=O)N(C)[C@H]1C[C@H]2c3cc(-c4ccccc4)ccc3CCN2C(=O)[C@H]1[C@H](C)O | -24.2% | 5.1%
CCCCNC(=O)CCCn1c(=O)c2ccccc2n(Cc2ccccc2C)c1=O | -24.4% | -13.5%
CN1CCc2c(sc3c2C(=O)NC(c2cccs2)N3)C1 (configuration not stated) | -6.9% | 1.8%
CCOc1cc(C2c3c(n[nH]c3C)C(=O)N2c2ccc(Br)cc2)ccc1O (configuration not stated) | -5.8% | -2.6%
C1CCc2nnnn2CC1 | i | -11.6%
O=C1OC[C@@H]2CCCN2C(=O)[C@H](CC(=O)N(CCO)Cc2ccccc2)C/C=C\C[C@H]1Cc1ccc(F)cc1 | -13.5% | -26.8%
CC(OC(=O)c1ccc2c(=O)n3c(nc2c1)CCCCC3)C(=O)Nc1ccc(Cl)cn1 (configuration not stated) | i | -9.9%
Cn1ncc(C#N)c1/N=C/N1CCCCC1 | -23.8% | -18.3%
COc1ccc(N2C(=O)/C(=C/c3ccc([N+](=O)[O-])cc3)N=C2C)c(OC)c1 | -1.1% | 5.1%
Cc1ccc(S(=O)(=O)N2CCOCC2)cc1NC(=O)COC(=O)CCOc1ccc(C(C)(C)C)cc1 | -14.7% | -13.3%
COc1ccc(Cn2cc(CN3CCc4onc(-c5ccccc5OC)c4C3=O)nn2)cc1 | i | -13.4%
COc1ccc([C@H]2CC(=O)C=C(c3cccc(OC)c3)C2)cc1 | -3.6% | -13.3%
O=[N+]([O-])c1ccc(Cl)c(S(=O)(=O)N2CCCCCC2)c1 | -2.0% | -20.7%
Cc1nc2sccn2c1P(c1c(C)nc2sccn12)c1c(C)nc2sccn12 | -27.5% | -11.5%
Cc1ccc2c(c1)nnn2C1CCN(S(=O)(=O)c2ccc(C(=O)N3C(C)CCCC3C)cc2)CC1 (configuration not stated) | -21.7% | -28.3%
COC(=O)c1ccc2nc(-c3cccc(Br)c3)c(Cc3ccccc3OC)n2c1 | -4.2% | 1.0%
CC(=O)Nc1sc2c(c1C(c1ccc(F)cc1)N1CCOCC1)CCCC2 (configuration not stated) | -14.7% | u
CN(CCO)C(=O)C1CCN(c2ncc(C(F)(F)F)cc2Cl)CC1 | i | -7.0%

(more compounds)
SMILES | Vaccinia mCherry | VACV Venus inh
Cc1ccc(Cl)cc1NC(=S)NCCCSC1CCCCC1 | -27.9% | -29.0%
Cc1c(C)n(C)c2ccc(C(=O)NCCCN3CCN(c4ccc(F)cc4)CC3)cc12 | -27.9% | -17.6%
O=C(COC(=O)c1ccc(S(=O)(=O)N2CCOCC2)cc1)NC1CCCCCCC1 | i | -7.8%
O=C(Nc1ccccc1)c1ccc(Br)c(S(=O)(=O)N2CCCCC2)c1 | -17.3% | -23.1%
COc1ccc(S(=O)(=O)N2CCN(CC(=O)Nc3ccc(C)c(F)c3)CC2)cc1 | 9.1% | -14.6%
COCCn1nnnc1C(c1ccccc1OC)N1CCN(c2ccccc2F)CC1 (configuration not stated) | x | u
O=C1NCCSC1c1ccccc1 (configuration not stated) | i[7.34 µM] | 0.0%[7.34 µM]
Cc1ccc(O)c(NC(=O)c2cccc(S(=O)(=O)N3CCCCC3)c2)c1 | x | -28.3%
Cc1cccc(C(C)C)c1NC(=O)c1ccc(OCC2CCCO2)cc1 (configuration not stated) | i | -13.5%
Cc1ccc(-n2nc3c(N4CCCC(C(=O)NCc5ccc(Cl)cc5)C4)nnc(C)c3c2C)cc1 (configuration not stated) | -7.8% | -16.6%
C/C(=N/NC(=O)CNC(=O)c1cccs1)c1ccco1 | -8.6% | 4.9%
Cc1ccc(C(=O)Nc2nc(-c3ccco3)c(-c3ccco3)s2)o1 | -0.1% | 4.3%
CCOC(=O)c1c(NC(=O)COC(=O)c2ccc(Cl)nc2)sc(C(=O)N(C)C)c1C | -16.0% | -17.5%
CCOc1ccccc1N1CCN(CC(=O)c2c(N)n(C)c(=O)n(C)c2=O)CC1 | -1.6% | -11.0%
Cc1cnc(SCc2ccccn2)nc1C1CCCN(C(=O)c2cc3ccccc3oc2=O)C1 (configuration not stated) | -10.2% | -12.9%
Cc1ccc(S(=O)(=O)n2nc(C)c(S(=O)(=O)N3CCOCC3)c2C)cc1 | -14.8% | 0.7%
COc1ccc(C2C(C#N)=C(N)Oc3n[nH]c(C)c32)cc1CSc1ccccn1 (configuration not stated) | -26.0% | -24.2%
CCN(CC)C(=O)C1=C(C)N(Cc2ccc(OC)cc2)C(=O)C(CC(=O)NC2CCCCC2)C1 (configuration not stated) | i | -11.0%
COc1ccc(C(=O)OCC(=O)N(C)C2CCS(=O)(=O)C2)cc1S(=O)(=O)N1CCCc2ccccc21 (configuration not stated) | i | 2.3%
O=C(NCC1COc2ccccc2O1)c1cc(S(=O)(=O)N2CCOCC2)c(Cl)cc1Cl (configuration not stated) | u | -16.5%
O=C(C(=O)N1CCN(C(=O)c2ccco2)CC1)c1c[nH]c2ccccc12 | -8.1% | -1.8%
CCOc1ccccc1NC(=O)Cn1c(=O)n(-c2ccc(C)cc2)c(=O)c2c1cnn2C | -4.2% | 8.2%
O=C1COc2ccc(C(=O)CSc3nnc(Cc4cccs4)n3-c3ccccc3)cc2N1 | -23.2% | -28.1%
O=C(N/N=C/c1ccc(Cl)cc1)c1sccc1OCc1ccc(F)cc1 | u | u
FC(F)(F)c1cc(Cl)c2nc(-c3ccccc3)cn2c1 | x | -6.0%

4 of these compounds, set out differently:
Cc1cccc(C(C)C)c1NC(=O)c1ccc(OCC2CCCO2)cc1 (configuration not stated)
  Vaccinia mCherry: i
  VACV Venus inh: -13.5%
C/C(=N/NC(=O)CNC(=O)c1cccs1)c1ccco1
  Vaccinia mCherry: -8.6%
  VACV Venus inh: 4.9%
Cc1ccc(C(=O)Nc2nc(-c3ccco3)c(-c3ccco3)s2)o1
  Vaccinia mCherry: -0.1%
  VACV Venus inh: 4.3%
O=C(Nc1ccccc1)c1ccc(Br)c(S(=O)(=O)N2CCCCC2)c1
  Vaccinia mCherry: -17.3%
  VACV Venus inh: -23.1%

Later entries:
SMILES | Vaccinia mCherry | VACV Venus inh
O=c1[nH]c2ccc(S(=O)(=O)N3CCCC3)cc2[nH]1 | -3.6% | 9.8%
CCC1CCCCN1C1Sc2ccc(C(=O)OC)cc2NC1=O (configuration not stated) | -9.6% | -8.9%
O=C(CN1C(=O)NC2(CCCCCC2)C1=O)c1ccc(OC(F)F)cc1OC(F)F | -4.3% | -19.7%
CC(O)(Cc1ccccn1)Cc1ccccn1 | -19.9% | 1.3%
COC(=O)c1[nH]c2ccccc2c1NC(=O)C(C)N1CCN(C(=O)c2ccco2)CC1 (configuration not stated) | i | -14.4%
CSc1nc(Oc2ccc(=O)[nH]n2)nc(N(C)C)n1 | i | -5.4%
CN=C1SC(CC(=O)Nc2c(C)cccc2C)C(=O)N1/N=C/c1cccs1 (configuration not stated) | -14.1% | -10.6%
Cc1noc2ncc(C(=O)c3cc(F)ccc3O)cc12 | x | -27.6%
CCCCN1C(=S)SC(C)(C)C1/[N+]([O-])=C/c1ccc(S(=O)(=O)NC)cc1 (configuration not stated) | i | -7.5%
CCOc1ccc(Cl)cc1-c1cc(C(=O)NC(C)C)[nH]n1 | i | -6.4%
CCC(=O)N1CCN(c2ccc(NC(=O)c3ccc(C#N)cc3F)cc2Cl)CC1 | -5.4% | -2.5%
CC(=O)Nc1cccc(/C(C)=N/NS(=O)(=O)c2ccccc2)c1 | i | -9.9%
Cc1ccc(CSCCNC(=O)CN(c2cccc(C)c2C)S(=O)(=O)c2ccccc2)cc1 | -28.7% | -20.2%
CCc1ccc(NC(=O)CSc2cn(CC(=O)N3CCCC3)c3ccccc23)cc1 | -13.5% | -16.1%
Cc1c(NC(=O)C(C)OC(=O)c2ccc(Br)o2)c(=O)n(-c2ccccc2)n1C (configuration not stated) | -4.1% | -2.7%
OCCCCCNc1ncnc2ccccc12 | -8.3% | -1.0%
O=C(c1ccc2ccccc2c1)C1CCCN(C(=O)CN2C(=O)CSC2=O)C1 (configuration not stated) | i | -7.4%
CC(=O)n1c2ccccc2c2c1c1ccccc1n2C | x | 0.1%
CCC(c1nnc(SCC(=O)N2CC3(C)CC2CC(C)(C)C3)o1)N(C)C (configuration not stated) | -7.6% | -12.4%
COC(=O)c1sccc1NC(=O)c1c(-c2ccccc2)noc1C | -7.5% | 8.1%
COc1ccc(-c2cc(-c3ccccc3)n[nH]2)c(O)c1 | -21.1% | -20.1%
Cc1ccc(C)c(NC(=O)C2CCCN(S(=O)(=O)c3c(C)noc3/C=C/N(C)C)C2)c1 (configuration not stated) | i | -20.6%
COc1ccccc1CNC(=O)C1CCCN(c2cnccn2)C1 (configuration not stated) | i | -15.7%
O=c1[nH]c(=S)n(-c2cccc(Cl)c2)c(O)c1C=NCCN1CCNCC1 | i | -18.3%
Cc1cc(NC(=O)CNC(=O)C2CCCCC2)no1 | -13.0% | -7.6%

Next section.
SMILES | Vaccinia mCherry | VACV Venus inh
O=C(Nc1cccc(OC(F)(F)F)c1)[C@@H]1O[C@H](CO)[C@H](O)[C@H](O)[C@H]1O | i | -7.8%
CCCOc1ccc(C(=O)N(Cc2ccc(N(C)C)cc2)CC2CCCO2)cc1 (configuration not stated) | -11.4% | -3.7%
COc1ccc(S(=O)(=O)Cc2ccc(C(=O)NCc3ccco3)o2)cc1 | -1.8% | 4.9%
COc1cccc(CN(C)C[C@@H]2OCc3ccccc3-c3c(n(C)c4ccccc34)C(=O)N([C@@H](C)CO)C[C@H]2C)c1 | u | u
O=[N+]([O-])c1ccc(Cl)cc1C=NNc1ccccn1 | i | -2.3%
Cc1ccc(SCC(=O)NCCN2C(=O)CSC2=O)c(C)c1 | -10.8% | -1.9%
CCOc1ccccc1NC(=O)N1CCC(NC(=O)C2CCCCC2)CC1 | -4.1% | -2.5%
